E coli growth: blocks Escherichia coli growth | OD600, 23 h; hits give low values | OD600 absorbance (test concentration not listed) | 330,000 compounds, 0.21% hits | AID 1053175;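 active = OD600 absorbance below the run mean of sample wells minus 3.6 SD, in any replicate, cut at about 0.56 in these data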;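 also: stock transfer was 300 nL into about 60 µL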
ALR H2O2 inh: blocks human ALR sulfhydryl oxidase activity. P55789. AID 485317. 290,000 compounds, 3.8% hits. inhibition, % (test concentration not listed). purified ALR, DTT oxidation, H2O2 HRP-luminol luminescence;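 active = mean and each replicate at 75% or more; inconclusive = only one of the two met; inactive = neither met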;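 also: stock transfer was 7.5 nL into about 7.5 µL; 0% = neutral wells and 100% = wells with inactivated enzyme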
Target sequence (P55789 whole entry, looked up): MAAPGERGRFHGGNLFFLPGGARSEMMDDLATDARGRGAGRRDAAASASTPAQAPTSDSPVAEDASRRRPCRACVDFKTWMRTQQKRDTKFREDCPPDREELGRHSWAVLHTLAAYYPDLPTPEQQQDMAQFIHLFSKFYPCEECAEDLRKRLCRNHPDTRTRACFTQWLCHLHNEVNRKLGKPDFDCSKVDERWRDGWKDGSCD
Vif A3G: inhibitors of Vif binding to APOBEC3G peptide, primary screen, biochemical, TR-FRET, GST-Vif 1-94, biotin-A3G peptide, dose response retest (AID 1117319); TR-FRET GST-Vif / biotin-A3G peptide binding; higher % means a stronger effect; test concentration not given here; strong numbers were not always called active; inhibition, %, or IC50 in µM where a hit was titrated; 260,000 compounds, 0.57% hits;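 active = above the screen mean plus three standard deviations and confirmed in dose response; inconclusive = results disagree or hit not tested in dose response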;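 also: Vif residues 1-94 fused to GST binding biotinylated APOBEC3G peptide 110-148; 0% = full assay without inhibitor and 100% = GST in place of GST-Vif; retest series ran down from 100 µM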
FGF22 binding: shifts melting point of recombinant human FGF22; Q9HCT0; calls only at 9.99 µM; recombinant FGF22 thermal shift, SYPRO orange fluorescence; percent of sucrose octasulfate shift, DMSO zero; 340,000 compounds, 1.5% hits;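 active = melting point raised past a set limit in the mean and every replicate; inconclusive = no clear call; three in four hits are not shown here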
Target sequence (Q9HCT0 whole entry, looked up): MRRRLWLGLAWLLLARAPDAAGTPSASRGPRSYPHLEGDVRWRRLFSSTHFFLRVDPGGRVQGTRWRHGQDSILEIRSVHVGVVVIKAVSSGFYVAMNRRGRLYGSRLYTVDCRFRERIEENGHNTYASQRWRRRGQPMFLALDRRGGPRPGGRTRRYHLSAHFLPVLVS
MLL AF4-AF9 inh: MLL-AF4/AF9 protein interaction inhibition; inhibition, % at 10 µM; P42568; 350,000 compounds, 0.47% hits; AlphaScreen, biotin-AF4 peptide binding to FLAG-AF9;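 active = every replicate reaching a set inhibition limit, whatever the replicate mean, cut at about 25% in these data; inconclusive = mean inhibition reaches that limit but some replicates miss it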;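 also: 0% = plate neutral control median and 100% = total signal loss; the record names both 10 and 1 µM as test concentration; the first replicate is given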
Target sequence (P42568 whole entry, looked up): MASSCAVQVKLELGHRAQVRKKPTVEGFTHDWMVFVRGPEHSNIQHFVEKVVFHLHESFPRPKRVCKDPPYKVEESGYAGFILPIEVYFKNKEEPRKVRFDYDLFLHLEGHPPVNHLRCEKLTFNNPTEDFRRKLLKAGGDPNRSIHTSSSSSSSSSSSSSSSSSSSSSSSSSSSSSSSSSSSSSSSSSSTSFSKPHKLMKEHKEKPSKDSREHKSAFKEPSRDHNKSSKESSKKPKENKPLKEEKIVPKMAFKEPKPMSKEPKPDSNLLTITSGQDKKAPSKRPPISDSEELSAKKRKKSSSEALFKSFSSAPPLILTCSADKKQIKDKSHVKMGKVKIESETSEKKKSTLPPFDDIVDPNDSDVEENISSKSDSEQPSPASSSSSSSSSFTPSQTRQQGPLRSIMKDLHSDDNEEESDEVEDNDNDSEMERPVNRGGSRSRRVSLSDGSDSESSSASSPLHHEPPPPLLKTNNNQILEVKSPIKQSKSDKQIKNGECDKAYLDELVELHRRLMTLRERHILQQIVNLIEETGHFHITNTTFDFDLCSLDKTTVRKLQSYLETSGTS
rRNA inh HTS: inhibitors of bacterial rRNA selective over humanized ribosomes. E. coli WT GFP vs humanized-ribosome RFP mutants, fluorescence, 24 h; hits give low values; DMSO median 0, no signal -100. GFP signal change (wild-type ribosome), % (no concentration beside the values). 350,000 compounds, 1.6% hits;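 active = significant combined selectivity score with lowered wild-type GFP, culture density cut under 30%, mutant RFP and density less affected; inactive = any of these conditions unmet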; also: one replicate is shown; some compounds called inactive have numbers as strong as hits
HNF4A DNA FP: change in binding of human HNF4 alpha to DNA; P41235; HNF4a-FITC DNA binding, fluorescence polarization, 1 h; activity change, % at 10 µM; 360,000 compounds, 0.3% hits; in the data active = activity change above about 30%, passing the limit was not always enough;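 also: controls were the assay level and a saturating level of protein; the project sought stronger binding though the title names inhibitors; some compounds called inactive have numbers as strong as hits; positive values seem to mean higher polarization but the record does not say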
rRNA inh HTS OD600: also measured in rRNA inh HTS; calls as there; OD600 change, %; measured here: OD600 growth;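 optical density of the mix in the first replicate; 0 = DMSO median and -100 = no signal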
rRNA inh HTS RFP: second read-out of rRNA inh HTS, no call of its own (marks repeat the call); RFP signal change, %; measured here: RFP humanized mutant strains;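 first replicate; 0 = DMSO median and -100 = no signal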
An asterisk follows results filed as active; i = inactive; ? = inconclusive; . = not tested or not shown; & = joins results of further samples. A portion of the library; the hit share may differ from the screen's.

SMILES	E coli growth	ALR H2O2 inh	Vif A3G	FGF22 binding	MLL AF4-AF9 inh	rRNA inh HTS	rRNA inh HTS OD600	rRNA inh HTS RFP	HNF4A DNA FP
COc1ccc(NC(=O)N2C[C@@H](O)COC[C@@H]3O[C@@H](CC(=O)NCc4ccccc4OC)CC[C@H]32)cc1	.	.	.	i	0.7	0	-3	-3.7	.
CCOc1ccc(OCC)c(S(=O)(=O)NCc2ccccc2)c1	0.7	-4	.	i	1.7	-1	-13	-3.1	-0.6
O=C(C[C@H]1CC[C@@H](NC(=O)Nc2ccc3c(c2)OCO3)[C@@H](CO)O1)NCc1ccc(F)cc1	.	.	.	i	0.0	2	6	-3.9	.
COC(=O)C1=CN(Cc2ccc(C)cc2)C=C(C(=O)OC)C1c1ccc(F)c(F)c1	0.73	0	-3%	i	-7.8	3	6	0.7	-3.3
CCc1ccc(C(=O)Nc2cccnc2Oc2ccc(Cl)cc2)cc1	0.71	2	74%	i	-3.9	-21*	-4.7*	-1.4*	12
O=C(O)C(c1ccccc1)C1(O)CCC1 (centres undefined)	0.71	.	4%	.	3.2	.	.	.	4.1
C[C@@H]1CN([C@@H](C)CO)C(=O)c2c(c3ccccc3n2C)-c2ccccc2CO[C@@H]1CN(C)S(=O)(=O)c1ccccc1	.	.	.	i	-1.1	2	4	-4.1	.
O=C(O)c1ccc(N=Nc2c(O)[nH]c3ccccc23)cc1	.	12	.	i	-2.2	-9	-10	8.8	3.3
Cc1ccccc1S(=O)(=O)NCc1ccc(N2CCN(C)CC2)cc1	0.64	-2	24%	i	1.6	.	.	.	-2.2
COCCCNC(=O)C(=O)NCC(c1ccco1)N1CCN(c2ccc(OC)cc2)CC1 (centres undefined)	0.69	31	4%	i	0.3	6	10	-1.9	-2.0
O=C(N[C@H]1CC[C@@H](CCNC(=O)C2CCCC2)O[C@H]1CO)c1ccccn1	.	.	.	i	-1.2	1	3	-2.8	.
CCOC(=O)c1cnn(-c2nc(OCC)cc(OCC)n2)c1C	0.69	-1	8%	i	-10.0	-15	-19	-9.3	-4.4
O=C(COC(=O)/C=C/c1cccc(Br)c1)Nc1cccc(S(=O)(=O)NC2=NCCC2)c1	0.68	.	6%	i	0.4	-5	-2	-0.9	5.2
N#CCSc1nnc2c(Cl)cc(Cl)cn12	0.69	-4	6%	.	.	.	.	.	0.8
C[C@H](CO)N1C[C@H](C)[C@H](CN(C)Cc2ccc(C(=O)O)cc2)Oc2ccc(NC(=O)c3ccncc3)cc2CC1=O	.	.	.	i	-4.4	-1	9	-1.8	.
CCOC(=O)c1ccc(NC(=O)CN2CCN(C(=O)C3CCCO3)CC2)cc1 (centres undefined)	0.69	1	.	.	0.0	16	17	2.4	0.1
O=C(COC(=O)c1ccccn1)Nc1ccc2c(c1)OCCO2	0.71	-4	.	i	2.7	.	.	.	2.3
COc1ccc(C(=O)CN2C(=O)C(C)(C)Oc3ccc(C(=O)N4CCCCCC4)cc32)cc1	0.72	0	1%	.	.	.	.	.	2.2
Cc1ccc(S(=O)(=O)N2C[C@@H]3[C@H](c4ccccc42)[C@H](CO)N3Cc2cccnc2)cc1	.	.	.	i	0.2	-8	-6	5.8	.
Nc1nnc(SCC(=O)OCC(=O)c2ccccc2)s1	0.73	-7	5%	i	-3.3	20	15	-8.3	2.5

Part of the list above, as labelled records:
C[C@@H]1CN([C@@H](C)CO)C(=O)c2c(c3ccccc3n2C)-c2ccccc2CO[C@@H]1CN(C)S(=O)(=O)c1ccccc1
  E coli growth = .; ALR H2O2 inh = .; Vif A3G = .; FGF22 binding = i; MLL AF4-AF9 inh = -1.1; rRNA inh HTS = 2; rRNA inh HTS OD600 = 4; rRNA inh HTS RFP = -4.1; HNF4A DNA FP = .
O=C(O)c1ccc(N=Nc2c(O)[nH]c3ccccc23)cc1
  E coli growth = .; ALR H2O2 inh = 12; Vif A3G = .; FGF22 binding = i; MLL AF4-AF9 inh = -2.2; rRNA inh HTS = -9; rRNA inh HTS OD600 = -10; rRNA inh HTS RFP = 8.8; HNF4A DNA FP = 3.3
Cc1ccccc1S(=O)(=O)NCc1ccc(N2CCN(C)CC2)cc1
  E coli growth = 0.64; ALR H2O2 inh = -2; Vif A3G = 24%; FGF22 binding = i; MLL AF4-AF9 inh = 1.6; rRNA inh HTS = .; rRNA inh HTS OD600 = .; rRNA inh HTS RFP = .; HNF4A DNA FP = -2.2
COCCCNC(=O)C(=O)NCC(c1ccco1)N1CCN(c2ccc(OC)cc2)CC1 (centres undefined)
  E coli growth = 0.69; ALR H2O2 inh = 31; Vif A3G = 4%; FGF22 binding = i; MLL AF4-AF9 inh = 0.3; rRNA inh HTS = 6; rRNA inh HTS OD600 = 10; rRNA inh HTS RFP = -1.9; HNF4A DNA FP = -2.0

Remaining list, next part.
SMILES	E coli growth	ALR H2O2 inh	Vif A3G	FGF22 binding	MLL AF4-AF9 inh	rRNA inh HTS	rRNA inh HTS OD600	rRNA inh HTS RFP	HNF4A DNA FP
COCc1nnc(NS(=O)(=O)c2ccc(OC)cc2)s1	0.64	.	.	i	-0.8	8	16	0.5	0.2
COc1ccccc1NC(=O)N[C@H]1CC[C@@H](CCNC(=O)c2ccc3c(c2)OCO3)O[C@H]1CO	.	.	.	i	-3.1	-1	-5	0.7	.
CC(=O)N1CC(C)Oc2ccc(S(=O)(=O)NC(CC(=O)O)c3cc(C)ccc3C)cc21 (centres undefined)	0.72	0	.	i	-4.9	3	14	0.6	-4.2
COc1ccc(/C=C(/NC(=O)c2ccccc2)C(=O)N2CCCC2)cc1	0.7	.	.	i	0.1	1	10	-1.9	-0.1
C[C@@H]1CCCCO[C@H](CN(C)C(=O)CCCN(C)C)[C@H](C)CN([C@@H](C)CO)C(=O)c2cc(NC(=O)Nc3cccc4ccccc34)ccc2O1	.	.	.	i	16	-36*	7.6*	6.1*	.
O=C(C[C@@H]1CC[C@@H]2[C@H](COC[C@H](O)CN2C(=O)c2cccnc2)O1)NCC1CC1	.	.	.	i	-3.5	6	0	5.5	.
COCC(=O)Nc1ccc2c(c1)OC[C@@H](C)N(Cc1ccccc1OC)C[C@H](C)[C@H](OC)CN(C)C2=O	.	.	.	i	1.1	0	1	-2.0	.
COc1ccc(CC(=O)Nc2cc(C)ccc2O)cc1OC	0.66	21	6%	i	3.4	0	5	-2.5	0.1
CCCCn1c(SCC(=O)c2ccccc2)nc2c1c(=O)[nH]c(=O)n2C	0.74	-4	?	.	.	.	.	.	-1.4
CC(c1ccccc1)N1C(=O)c2cccnc2C1=O (centres undefined)	0.62	.	2%	i	0.7	-1	8	0.5	0.0
COCCn1c(SCC#N)nnc1-c1ccccc1O	0.77	-23	4%	.	.	.	.	.	-1.9
COc1ccc(S(=O)(=O)Nc2ccc3c(c2)CC(=O)N([C@H](C)CO)C[C@@H](C)[C@H](CN(C)C)O3)cc1	.	.	.	i	-8.0	-2	3	-1.7	.
N/C(Cc1ccc([N+](=O)[O-])cc1)=N\OC(=O)Cc1ccc(Cl)cc1	.	0	.	i	1.0	-11	7	-3.5	3.3
O=C(NNC(=O)C1CCCCC1)c1ccc(Br)cc1	0.73	-6	0%	i	-3.9	-24*	3.8*	-5.3*	-1.8
COc1ccc(/C(O)=C2/C(=O)C(=O)N(CC3CCCO3)C2c2cccc(OC)c2)cc1 (centres undefined)	0.67	0	20%	i	3.6	-24	-33	-6.7	-2.5
COc1ccc(Br)cc1C(=O)NC(=S)Nc1ccc2[nH]c(=O)[nH]c2c1	0.7	.	-6%	i	1.1	11	3	-2.7	-0.7
O=C(COC(=O)Cc1ccc(Br)cc1)NCc1ccccc1	.	.	2%	i	-2.6	3	8	3.1	0.3
CC(=O)N(C)C[C@H]1Oc2ncc(-c3cncnc3)cc2C(=O)N([C@H](C)CO)C[C@@H]1C	.	.	.	i	-2.0	4	5	-3.8	.
Cc1ccc(-n2c(C)nn(Cc3ccc([N+](=O)[O-])cc3)c2=O)cc1	0.7	-11	10%	.	1.6	12	11	1.9	0.2
C[C@H](CO)N1C[C@H](C)[C@@H](CN(C)Cc2cccc(C(=O)O)c2)OCc2cnnn2CCCC1=O	.	.	.	i	-0.3&-2.8	11&2	12&8	7.3&-2.7	-2.5
C[C@H]1CN([C@@H](C)CO)C(=O)c2cccc(NC(=O)C3CCCCC3)c2O[C@H]1CN(C)Cc1ccc(C(F)(F)F)cc1	.	.	.	i	1.1	-5	1	2.1	.
O=C(NC1Cc2ccccc2C1)[C@@H]1[C@@H](CO)[C@@H]2Cn3c(cccc3=O)[C@@H]2N1C(=O)C1CC1	.	.	.	i	-0.1	1	15	-2.3	.
Cc1nnc(NC(=O)c2ccc(-c3ccc(Cl)cc3)o2)s1	0.67	-1	-6%	i	0.0	11	18	2.6	-2.5
Cc1cccc(C(=O)N2CCN(C(=O)c3cccc(C)c3)C(C)C2)c1 (centres undefined)	0.73	-7	8%	.	.	.	.	.	-3.3
C[C@H]1CN([C@@H](C)CO)C(=O)c2cc(NS(C)(=O)=O)ccc2O[C@H]1CN(C)Cc1ccc(C(=O)Nc2ccccc2N)cc1	.	.	.	i	-1.4	9	10	-0.5	.
Cc1cc(OC(=O)c2c(Cl)cccc2Cl)nc(C)n1	0.67	.	6%	.	.	9	21	6.0	13
Cc1noc(C)c1S(=O)(=O)Nc1ccc(C(=O)NC2CCCCC2)cc1	0.65	1	2%	.	.	.	.	.	2.0
Cc1ncsc1CCOC(=O)c1ccccc1	0.63	-17	7%	i	2.1	2	-6	-2.3	1.0
CC(OC(=O)c1ccc2c(c1)OCO2)C(=O)NC1CCCCC1 (centres undefined)	.	.	-12%	i	-1.9	.	.	.	3.1
CCN(CC(=O)NCc1ccc(F)cc1)C(=O)C(C)Oc1cccc(Cl)c1 (centres undefined)	0.68	2	0%	i	1.0	-1	1	-2.9	-3.4
CC1(C)Cc2nc3sc4c(N(CCO)CCO)ncnc4c3cc2CO1	0.76	5	3%	.	.	14	-6	2.1	0.3
CCN1CCCC1CNC(=O)c1cc2cc(OC)c(OC)cc2[nH]1 (centres undefined)	0.67	-7	5%	i	9.0	9	16	1.5	-1.6
COc1ccc(Cl)cc1NC(=O)COC(=O)C1COc2ccccc2O1 (centres undefined)	0.67	-3	8%	i	2.9	4	6	-1.6	3.5
COc1ccc(S(=O)(=O)Nc2ccc(S(=O)(=O)Nc3nc(C)cc(C)n3)cc2)cc1OC	0.69	4	13%	.	.	.	.	.	-3.0
O=C(O)CCNC(=O)c1cncc(Br)c1	0.61	1	3%	i	-2.2	3	4	0.2	-0.7
Cc1ccc(NC(=O)Nc2nnc(Cc3ccc([N+](=O)[O-])cc3)s2)cc1C	0.72	1	.	.	.	.	.	.	-3.4
ON1C(c2ccccc2)CC2(O)c3nonc3CCC12 (centres undefined)	0.69	-3	15%	.	.	.	.	.	-0.1
Cc1nn(CC(=O)NN)c(C)c1Br	0.63	11	-3%	i	-0.6	.	.	.	0.4
COc1ccccc1OCC(=O)Nc1cc(NC(=O)COc2ccccc2OC)cc(C(=O)O)c1	0.66	98*	.	i	-2.3	-23	-29	1.2	-0.6
CC[C@H](C)[C@H](NC(=O)OCc1ccccc1)C(=O)OCC(=O)N1CCN(c2ccc(F)cc2)CC1	.	.	.	i	-0.1	3	-9	1.4	-0.6
COc1ccc(C(=O)N2N=C3CC(C)(C)OCC3C2c2ccccc2)cc1 (centres undefined)	0.64	0	-5%	i	-8.0	11	-4	5.3	-0.6
N#C[C@H]1N[C@@H](CO)[C@@H]1c1ccccc1	.	.	.	i	-1.5	4	8	-0.6	.
Cc1cccc(C)c1-n1nnnc1C(c1ccnc2ccccc12)N1CCN(CCN(C)C)CC1 (centres undefined)	.	.	.	i	-1.6	9	22	3.9	-1.6
CCN(CC)c1ccc(NC(=O)CN2CCN(S(=O)(=O)c3cc(Cl)ccc3OC)CC2)cc1	0.66	.	4%	.	.	.	.	.	0.5

Source: PubChem BioAssay
